Assay outcomes deposited in PubChem BioAssay by National Center for Advancing Translational Sciences (NCATS).
ClpP mod: qHTS Assay for Activators of ClpP; hit rate 1.9% among 340,000; purified B. subtilis ClpP, FRET peptide cleavage, 20 min; Potency, µM (highest dose often 57.5 µM), for inactives: top-dose activity change, negative = active; ATP-dependent Clp protease proteolytic subunit (Bacillus subtilis (strain 168)), P80244; AID 651965, 2013; active = well fitted falling curve with a large enough effect; inconclusive = small, poorly fitted or top-dose-only effect; inactive = no such curve, though single readings can be large or run the other way; further: potency means the concentration at half of the fitted maximal effect; the source files actives as falling curves though it sought activators and does not explain the sign; nearly all actives have a fitted effect of over 65% in size; many hits overshoot -100%
Target sequence (P80244 whole entry, looked up): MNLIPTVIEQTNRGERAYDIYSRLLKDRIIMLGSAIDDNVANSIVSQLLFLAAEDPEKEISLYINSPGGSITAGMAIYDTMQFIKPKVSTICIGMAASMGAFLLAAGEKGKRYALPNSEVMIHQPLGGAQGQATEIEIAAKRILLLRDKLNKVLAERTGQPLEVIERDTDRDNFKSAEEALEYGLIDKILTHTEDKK
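FRET quenching reversal measured ClpP activation: 10 microg/mL B. subtilis ClpP at pH 8 with the FRET-FV decapeptide, read at 430 nm after 320 nm excitation. The 20-min minus 0-min signal was scaled between DMSO/no-enzyme wells and ADEP (5.8 microM final).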
Menin MLL FP FL: menin-MLL binding inhibition, fluorescein peptide | FP activity change, % at 61.4 µM | 290,000 tested, under 10 active | Fluorescence polarization, fluorescein-MLL peptide displacement from menin; inconclusive = falling polarisation curve, or a change in total fluorescence; inactive = total fluorescence flat and polarisation flat or rising; no compound was filed as active; the % refers to the polarisation; negative = inhibition;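 further: % of control where 0% means no effect; inhibitors lower the polarisation; unlabelled MLL peptide was the positive control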
gsp antag: gsp mutant antagonism; gsp-mutant cells, cAMP HTRF, 30 min; control for the full effect not named in the record; Potency, µM (series often up to 76.9 µM), for inactives: at the top dose activity change, negative = inhibition, usual class: inhibitors; hit rate 0.4% among 340,000; AID 624288; active = falling curve of any shape with a large fitted effect; inconclusive = falling curve, mostly with a smaller effect; inactive = flat or rising curve; cell line not stated here;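 further: intracellular cAMP measured with PDE inhibitor Ro 20-1724 present during compound exposure; potency means the concentration at half of the fitted maximal effect; on the % scale 0 is the no-effect control and ±100 the full control effect; nearly all actives have a fitted effect of over 65% in size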
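HTRF cAMP read-out (cAMP-d2 plus anti-cAMP antibody-K in lysis buffer, 30 min RT). Before lysis, cells are exposed to compounds with […] for 30 min at 37C in DPBS containing Ca/Mg, BSA and Tween 20.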
gsp ag: activates gsp, the McCune-Albright syndrome mutation; gsp mutant cells, cAMP HTRF, 30 min; control for the full effect not named in the record; Potency, µM (doses to about 76.9 µM), inactives show top-dose activation (cAMP increase), most hits filed as activators; hit rate 0.13% among 340,000; active = well fitted activation curve with a large enough effect; inconclusive = small, poorly fitted or top-dose-only effect, or another doubt; inactive = no such curve, though single readings can be large or run the other way; cell line not stated here;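 further: phosphodiesterase inhibitor Ro 20-1724 added with compounds to block cAMP breakdown; potency means the concentration at half of the fitted maximal effect; nearly all actives have a fitted effect of over 60% in size; about a fifth of the inactives were tested at one dose only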
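Cells in DMEM/10% FBS with G418 were pretreated with compounds in DMSO plus […] (300 uM stock) for 30 min at 37C. cAMP was measured by HTRF (cAMP-d2 plus anti-cAMP antibody-K) after 30 min at room temperature.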
TRPML1 blocker: blocks the human TRPML1 channel. TRPML1-inducible cells, Ca2+ dye fluorescence, FDSS; active compounds read low; inhibition of EC80 agonist-evoked calcium signal. Q9GZU1. AID 624415. activity change, negative = inhibition, % (no concentration beside the values). hit rate 0.02% among 390,000; in the data active means activity change below about -50%; inconclusive means about -30% to -50%; inactive means above about -30%;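 further: stimulus is agonist 54-4 at its EC80 concentration; on the % scale 0 is the no-effect control and ±100 the full control effect; compound concentration not given in the record; the text of the record puts the active cut at -80%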
Target sequence (Q9GZU1 whole entry, looked up): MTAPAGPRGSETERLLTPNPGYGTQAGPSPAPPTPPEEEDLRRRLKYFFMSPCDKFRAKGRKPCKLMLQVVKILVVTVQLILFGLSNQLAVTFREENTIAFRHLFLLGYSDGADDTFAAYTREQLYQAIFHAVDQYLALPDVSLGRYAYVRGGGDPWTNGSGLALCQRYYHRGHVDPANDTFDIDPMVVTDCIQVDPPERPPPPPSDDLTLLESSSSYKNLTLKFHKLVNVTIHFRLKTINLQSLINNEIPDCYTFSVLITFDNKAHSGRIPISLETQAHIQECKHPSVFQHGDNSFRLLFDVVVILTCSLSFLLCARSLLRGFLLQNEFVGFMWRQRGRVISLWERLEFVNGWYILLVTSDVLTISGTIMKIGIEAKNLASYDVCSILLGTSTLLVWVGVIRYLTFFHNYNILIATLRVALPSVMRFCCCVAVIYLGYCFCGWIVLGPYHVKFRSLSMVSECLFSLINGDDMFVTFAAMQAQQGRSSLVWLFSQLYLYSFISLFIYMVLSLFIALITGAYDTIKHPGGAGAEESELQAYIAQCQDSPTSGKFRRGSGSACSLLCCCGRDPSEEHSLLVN
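Tet-induced TRPML1-DL cells loaded with Ca8 no-wash calcium dye were read kinetically on FDSS. Compound addition was followed by EC80 agonist 54-4 (4 uM final); inhibition was read over 110 s.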
TRPML1 ag: activates the human TRPML1 channel. hit rate 0.12% among 410,000. TRPML1-expressing cells, Ca2+ dye fluorescence, FDSS; host cell line not named in the record; reference of the full effect not given here. Q9GZU1. AID 624414. activation, % (no concentration beside the values); in the data active = activation above about 50%; inconclusive = about 30% to 50%; inactive = below about 30%; further: 0% is about no effect; the text of the record puts the active cut at 80%
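In this qHTS format, compounds were pin-transferred onto Ca8-dye-loaded TRPML1-DL cells induced with Tet overnight, and intracellular Ca2+ fluorescence was recorded kinetically for 110 s after a 10 s baseline. A subsequent 4uM final 54-4 (EC80) addition followed by a second 110 s read served as the antagonist phase.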
* marks the source's active call; other numbers are inactive results; ? = inconclusive; . = no result given; [ ] = remark or other dose. An unsorted share of the library. About 2.1% of those tested had a hit in this group.

SMILES	ClpP mod	Menin MLL FP FL	gsp antag	gsp ag	TRPML1 blocker	TRPML1 ag
COc1ccc(-n2c(SCC(=O)N3CCN(c4ccccc4)CC3)nc3c(c2=O)SCC3)cc1	-10.4%	0.7	-12.8%	?	-10.3	-0.4
COc1ccccc1NC(=S)NNC(=O)c1nn(C)cc1Cl	-1.6%	1.9	-11.5%	-33.8%[inhibitor]	-15.4	-0.2
O=C(Cn1c(NCCO)nc2ccccc21)N1CCN(Cc2ccccc2)CC1	-1.3%	-0.8	8.6%	3.8%[15.4 µM]	5.9	0.4
Cc1ccc(CN2CCC(CNC(=O)Nc3c(C)cccc3C)C2)cc1 (centres undefined)	-1.8%	.	.	.	-12.0	-0.9
CCN1CCN(c2ccc(NC(=O)c3cc4ccccc4cc3OC)cc2C)CC1	-0.2%	.	-1.4%	0.3%	-8.5	0.7
Cc1ccccc1N1C(=O)c2ccccc2C1O (centres undefined)	-1.4%	-15.2	6.4%	-4.0%	0.2	-0.2
CC(=O)c1cc(CN2CCC(n3nccc3NC(=O)c3ccccc3)CC2)cs1	0.1%	.	8.2%	-29.4%	8.0	0.3
CCn1ccc2cc(S(=O)(=O)N3CCCN(C(=O)Nc4cccc(Cl)c4)CC3)ccc21	-10.0%	.	.	.	-18.5	2.5
O=C(/C=C/c1ccccc1)NCC(=O)N/N=C/c1ccco1	-0.8%	.	-2.0%	4.2%	-19.2	0.3
CCOC(=O)c1sc(NC(=O)CSc2nc3c(c(-c4ccc(OC)cc4)c2C#N)CCCC3)c(C#N)c1C	-2.0%	3.4	-13.4%	-9.7%	-1.0	7.4
COc1ccc(OCC(=O)N/N=C2\CCCCc3ccccc32)cc1	.	-2.3	4.6%	-15.9%[15.4 µM]	17.3	2.6
Cc1ccc(CCNC(=O)c2ccc(NC(=O)N3CCSc4ccccc43)cc2)cc1	-0.7%	.	.	.	15.1	2.1
Cc1nn(CC(=O)NC(C)c2ccccc2)c(=O)c2cc3occc3n12 (centres undefined)	-2.5%	.	.	.	-7.8	-0.6
COc1ccc(NC(=O)Nc2ccc(Cc3ccncc3)cc2)cc1OC	-0.3%	2.2	-12.0%	-7.7%	2.2	-0.3
O=S(=O)(c1ccc2nc(COc3ccccc3)[nH]c2c1)N1CCOCC1	0.6%	-1.1	5.1%	-24.8%	-13.8	-0.6
CC(=O)N1CCOc2ccc(S(=O)(=O)NC[C@H]3O[C@@H](n4cnc5c(N)ncnc54)[C@H](O)[C@@H]3O)cc21	1.7%	.	9.9%	.	-10.8	-0.6
CCc1ccc(C(C(=O)NC2CCCC2)N(CCOC)C(=O)CCC(=O)Nc2cc(C)on2)cc1 (centres undefined)	.	-5.0	0.3%	1.2%	0.0	0.1
CCOC(=O)c1c(-c2ccccc2)csc1NC(=O)c1nn(CC)cc1Br	31.6µM*	2.5	-9.0%	-41.7%[inhibitor]	-3.3	1.0
Cc1nc(NC(=O)C2CC2)sc1C(=O)N1CCCCC1	0.7%	1.6	-4.4%	-8.5%	6.1	0.1
Cc1cc(C(C)(C)C)oc1C(=O)N(CC(=O)NC1CCCC1)Cc1ccccc1	-0.4%	0.6	-7.4%	8.6%	20.0	2.3
COc1ccc(-c2csc(Nc3ccc(S(N)(=O)=O)cc3)n2)cc1OC	-4.9%	-2.3	4.1%	-54.3%[inhibitor]	0.4	1.4
Cc1cccc(NC(=O)CCSc2ccccc2)c1C	-1.6%	0.7	6.6%	-24.6%	-2.2	0.3
COc1cccc(NC(=O)CCc2ccccc2)c1	1.2%	.	12.5%	2.1%	-15.4	-0.6
COc1ccccc1N1CCN(/N=C\c2ccc(C)o2)CC1	1.9%	5.1	-0.2%	36.2%	2.0	-1.1
CCN(CC)c1ccc(S(=O)(=O)N2CCCCC2)cc1NC(=O)CSCc1c(C)noc1C	-7.6%	.	-9.3%	23.8%	71.5	3.3
Cn1ccnc1SCCC#N	-0.6%	-4.0	6.4%	-6.6%	18.1	-0.5
Cc1c(S(=O)(=O)N2CCCC2)c(=O)n(C)c(=O)n1C	.	.	16.0%	9.3%[15.4 µM]	3.6	0.0
O=C(N/N=C/c1ccc2cccnc2c1)c1ccco1	.	-5.9	-8.5%	-1.5%	31.2	-0.7
Cc1cc(C)c2nc(NC(=O)C3CC(=O)N(Cc4ccco4)C3)sc2c1 (centres undefined)	-4.5%	1.8	-13.9%	-3.1%[15.4 µM]	7.6	0.8
CCOC(=O)c1ccc(NC(=O)COc2cc(=O)n(CC)c3ccccc23)cc1	0.4%	0.9	6.7%	-63.4%[inhibitor]	4.7	1.0
CCC1(CC)NC(=O)N(CC(=O)OC(C)C(=O)Nc2ccc(Cl)cn2)C1=O (centres undefined)	-1.8%	.	15.8%	0.9%[15.4 µM]	2.8	-0.6
COc1cccc(NC(=O)CSc2nc(-c3ccccc3Cl)nc3c2Cc2c(CO)cnc(C)c2O3)c1	0.2%	.	.	.	-12.5	1.3
CC(=O)Nc1ccc(S(=O)(=O)N2CCN(CCN3CCOCC3)CC2)cc1Cl	0.2%	-0.1	8.7%	?	7.6	0.9
CC(=NNC(=S)N1CC2CCC(CC2)C1)c1cnccn1	1.1%	.	21.4%	2.1%	-4.8	0.3
c1csc(Cc2nn3c(-c4ccncc4)nnc3s2)c1	2.4%	2.7	-5.5%	2.7%	13.2	0.7
O=C(Cn1nnc(-c2ccc(Cl)cc2)n1)NCC1CCCCC1	0.6%	-1.0	-3.9%	-5.6%	-17.7	0.8
COc1ccc2oc(=O)c(C(=O)N3CCCc4ccccc43)cc2c1	-1.3%	3.7	1.8%	-43.3%[inhibitor]	-11.5	-0.4
COc1ccc(CN2C(=O)c3ccccc3C2=O)cc1C(=O)N(C)CC(=O)Nc1ccc(C)cc1	-1.2%	.	.	7.1%	-8.2	-0.9
Cc1ccc(S(=O)(=O)N2CCOCC2)cc1C(=O)NCC1CCCCC1	1.2%	.	10.9%	-21.7%	18.3	0.0
Cc1occc1C(=O)Nc1ccc2c(c1)OCCO2	1.4%	0.1	5.9%	-7.6%	3.6	-0.9
O=C(NCC(c1ccco1)N1CCCCC1)c1ccc(COc2ccc(Cl)cc2)cc1 (centres undefined)	.	.	-11.0%	-1.0%[15.4 µM]	12.0	1.5
COc1ccc(NC(=O)COC(=O)Cn2cnc3ccccc32)cc1	0.8%	.	5.8%	8.8%	4.1	0.3
Nc1ccc(S(=O)(=O)NC(Cc2ccccc2)C(=O)O)cc1 (centres undefined)	1.7%	-0.6	7.8%	-25.2%	-5.2	0.7
CCOC(=O)c1c(C)[nH]c(C(=O)COC(=O)Cn2cc(C(F)(F)F)ccc2=O)c1C	-0.8%	.	1.3%	-32.6%[inhibitor]	-8.4	-0.7
Cc1cccc(NS(=O)(=O)c2ccc(C(=O)NCCCN3CCCC3=O)cc2)c1C	-5.0%	.	5.4%	-1.7%	-1.3	0.0
COc1cc(OC)c(OC)cc1/C=N/N(C)c1ccccc1	?	2.3	-14.1%	8.6%	-9.8	0.8
Cc1cc(C)n(C(=O)CNC(=O)c2cccc(Br)c2)n1	0.3%	-3.1	1.8%	-10.2%	-1.0	-0.7
CC(C)CNC(=S)N1CCN(c2nc(-c3ccc(Cl)cc3)cs2)CC1	.	12.5	-22.1%	-2.3%	-8.3	0.2
Cc1nc2cc(NC(=O)NCCCO)ccc2o1	.	1.7	2.1%	-6.9%[15.4 µM]	33.4	-0.9
CSc1ccc(Cl)c(C(=O)OCC(=O)N(C)CCC#N)c1	-4.0%	-7.3	-0.6%	5.0%	27.1	-0.3
O=C(CNC(=S)N(CCCN1CCOCC1)Cc1cccs1)NCc1ccccc1	-1.9%	.	1.6%	-0.1%	2.3	0.4
CCOC(=O)c1c(C)[nH]c(C(=O)COC(=O)c2c(CC)noc2C)c1C	.	.	-0.7%	9.1%[15.4 µM]	5.2	3.1
O=C(Cn1c(=O)n(Cc2ccco2)c(=O)c2c3c(sc21)CCCCC3)c1ccccc1	-0.7%	9.9	-1.5%	-23.1%	4.2	-0.7
Cc1occc1C(=O)Nc1cccc2ccccc12	-5.0%	7.6	-9.2%	3.0%	-6.4	-1.3
CC1CCCC(NC(=O)c2ccc3c(=O)n(CC4CCCO4)c(=O)[nH]c3c2)C1C (centres undefined)	25.1µM*	-1.4	-17.8%	13.0%	-9.2	1.2
COc1ccc(C2CC(=O)Nc3cc4c(cc32)OCO4)c(OC)c1 (centres undefined)	-2.5%	.	.	.	3.1	2.4
CCOc1ccc(CNC(=O)CCSCc2ccccc2F)cc1OC	-2.6%	2.1	10.5%	-5.1%[15.4 µM]	3.2	-0.2
Cc1cc(NC(=O)c2cncc(Br)c2)no1	-2.7%	-0.1	6.0%	13.3%	16.4	-0.3
O=C(Nc1ccc2c(c1)OCCO2)c1cccc(Cl)c1Cl	-1.5%	5.9	-26.0%	2.6%	10.3	-0.8
Cc1noc(NS(=O)(=O)c2ccc(NC(=O)c3cc(S(=O)(=O)Nc4ccc(F)cc4)ccc3Cl)cc2)c1C	-3.4%	.	7.5%	-7.1%	2.3	2.3

Additional compounds:
SMILES	ClpP mod	Menin MLL FP FL	gsp antag	gsp ag	TRPML1 blocker	TRPML1 ag
CS(=O)(=O)N(Cc1ccccc1)c1ccc(C(=O)Nc2cccc(Cl)c2)cc1	-12.0%	.	.	.	-18.8	-0.4
CN1C(=O)c2cccc(NCCCN3C(=O)c4ccccc4C3=O)c2C1=O	-1.5%	?	7.9%	?	-14.8	-0.1
Cc1ccc(NC(=O)c2cn(-c3ccccc3)nc2-c2ccccc2)cc1	?	.	.	.	1.7	3.8
Cc1cc(Cl)nc(Cl)c1C(=O)NCc1ccc(Cl)cc1	0.4%	3.6	-0.9%	-44.5%[inhibitor]	.	.
CCOc1cnc(-c2ccc(OC)cc2)o1	25.1µM*	-2.6	4.9%	3.5%	3.9	-0.7
Cc1ccccc1CS(=O)(=O)c1snnc1C	-0.4%	2.7	-4.3%	7.6%	-9.2	0.5
O=C(CCc1ccccc1)NC1CC(=O)N(c2cccc(F)c2)C1 (centres undefined)	0.6%	.	.	.	1.5	-0.2
COc1ccc(Cl)cc1C(=O)NNC(=O)c1cc2ccccc2o1	-2.6%	.	-3.9%	-49.8%[inhibitor]	22.9	0.9
COc1ccc(-c2ccc3c(c2)c(C#Cc2ccsc2)c(-c2cc(OC)cc(OC)c2)n3C)cc1	3.7%	.	9.2%	?	-0.5	0.1
COc1cc(NC(=O)c2ccc3c(=O)n(Cc4ccco4)c(=S)[nH]c3c2)cc(OC)c1OC	0.2%	6.8	-0.4%	10.6%	-9.0	-0.7
Cc1cc(C)c(C#N)c(OCC(=O)c2ccccc2)n1	-0.9%	0.7	-14.9%	-1.7%	0.4	-0.7
